HTT promoter inh – Primary qHTS for Identification of Small Molecule Inhibitors of Huntingtin Promoter Activity. HEK293 HTT promoter firefly luciferase reporter (activity 0% = vehicle and -100% = no light), 24 h. Potency, µM (top dose mostly 57.5 µM), for the others: at the top dose activity change, negative = inhibition, most hits filed as inhibitors. hit rate 0.93% among 48,000. AID 1508623, 2021; active = well fitted inhibition curve with a large enough effect; inconclusive = small, poorly fitted or top-dose-only effect; inactive = no such curve, though single readings can be large or run the other way; also: nearly all actives have a fitted effect of over 50% in size
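Quantitative HTS used concentration series of up to 57.5 uM final on HEK293 luciferase reporter cells, 24 h at 37 degrees C. Readout was Dual-Glo firefly luminescence.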
PMP22 txn – Cell-based coincidence reporter assay to measure PMP22 gene transcription in S16 Pmp22-F2sN cells - Primary screen | Potency, µM (highest dose often 57.5 µM), without a hit: at the top dose activity change, negative = inhibition, actives largely listed as inhibitors | AID 1508649, 2021 | S16 Pmp22-F2sN Schwann cells (luciferase reporters placed in the Pmp22 gene), FLuc/NLuc coincidence luminescence, 24 h | hit rate 2% among 43,000; active = clear falling dose curves in both reporters; inconclusive = both reporters move, but less clearly or upward; inactive = either reporter flat; the % is the NLuc reporter signal; also: % is scaled to controls: 0 for no effect and ±100 for the full control effect; some results filed as inactive show a strong effect at the top dose
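Rat S16 Pmp22-F2sN cells, 500-1,000/well in phenol red-free DMEM + 10% FBS, compound-treated 24 h (37C, 5% CO2). Luminescence: FLuc read, Stop&Glo added, NLuc read.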
Numbers without * were called inactive; ? = inconclusive; · = no result given; [ ] = remark or other dose. Potency is read from the fitted curve at half-maximal effect. A portion of the library. The share of hits here may be higher or lower than overall.

no.	compound	HTT promoter inh	PMP22 txn
1	CC(C)(C)C(=O)Nc1ccc(-c2nc3ccc(NC(=O)C(C)(C)C)cc3[nH]2)cc1	50.3%[activator]	-141.4%
2	Cc1ccc(S(=O)(=O)c2nc(-c3ccc(F)cc3)oc2N2CCN(c3ccccc3)CC2)cc1	-11.8%	0.3%
3	COc1ccc(CNc2nc(-c3ccco3)nn2S(=O)(=O)c2ccc(Cl)cc2)cc1OC	-8.4%	-58.9%
4	CCN(Cc1ccccc1)C(=O)CN1C(=O)COc2ccc(S(=O)(=O)N3CCCCCC3)cc21	-17.3%	?
5	CCCOc1ccc(C(=O)N2CCC(c3nc4ccccc4s3)CC2)cc1	-10.2%[11.5 µM]	1.0%
6	Cc1ccc2c(=O)c(C(=O)c3ccccc3)cn(CC(=O)Nc3ccc4c(c3)OCCO4)c2n1	10.0%	?
7	CC=C1NC(=O)[C@H]2CSSCCC=C[C@H](CC(=O)N[C@H](C(C)C)C(=O)N2)OC(=O)[C@H](C(C)C)NC1=O	19.8%	·
8	O=c1oc2ccccc2c(N2CCN(c3ccccc3F)CC2)c1CN1CCCC1	-12.9%	-31.5%
9	COc1cccc(CN2C(=O)c3ccccc3Sc3ccc(C(=O)NCCc4ccc(C)cc4)cc32)c1	-24.4%	-33.2%
10	COc1cc(Cl)c(C)cc1NC(=O)Cn1ncc2c1-c1cc(C)ccc1OC2	-16.5%	-19.2%
11	COc1ccc(CCCc2nnc(SCC(=O)Nc3ccc(C)cc3C)o2)cc1	-19.8%	-8.5%
12	CCOc1ccccc1NC(=O)CSc1nnc2[nH]c(=O)cc(C)n12	-5.6%	-13.6%
13	Cc1ccc(C)c(N2CCN(c3ncnc4c3nc3n4CCCCC3)CC2)c1	?	?
14	CCCCN(C)CCCNC(=O)Cn1ncc2c3ccccc3n(Cc3ccccc3)c2c1=O	21.6%	-13.0%
15	O=S(=O)(Nc1cccc(C(F)(F)F)c1)c1ccc(NS(=O)(=O)c2ccc3c(c2)OCCO3)cc1	?	17.7%

(next part)
no.	compound	HTT promoter inh	PMP22 txn
16	Cc1ccccc1NC(=O)CSc1nnc(-c2cccs2)o1	-17.9%[11.5 µM]	21.9%
17	Cc1ccc2nc(/C(C#N)=C/c3ccc(-c4cccc(Cl)c4)o3)[nH]c2c1	-6.5%	?
18	O=C(c1ccc2c(c1)N(Cc1ccc(F)cc1)C(=O)c1ccccc1S2=O)N1CCC(Cc2ccccc2)CC1 (configuration not stated)	?	?
19	CCc1ccc(CNC(=O)c2ccc(Cn3c(=O)c4cccn4c4cccnc43)cc2)cc1	0.3%	?
20	CCCCN(CC)C(=O)Cn1cc2c(n1)-c1c(oc(C(=O)N3CCCC3)c1C)CC2	?	?
21	O=C(CCCN1CCC(O)(c2cccc(C(F)(F)F)c2)CC1)c1ccc(F)cc1	-10.7%	·
22	CCC1CN(C(=O)N2CCC(C(=O)NCc3cc(OC)ccc3OC)CC2)c2ccccc2O1 (configuration not stated)	?	-44.1%
23	CC(NC(=O)Cn1c(=O)oc2cc(S(=O)(=O)NCc3ccccc3)ccc21)c1ccccc1 (configuration not stated)	-22.8%	0.9%
24	NC(CSCC(=O)O)C(=O)O (configuration not stated)	8.9%	·
25	CCCCNc1nc2ccccc2c2nc(-c3ccccc3)nn12	0.0%	8.4%
26	Cc1ccc(CNC(=O)C2(c3cccs3)CCOCC2)cc1	-2.9%	6.5%
27	CCCOc1ccc(CNC(=O)CCCn2ncn3c(cc4sc(CC)cc43)c2=O)cc1	?	-15.5%
28	O=C(O)C(S)C(S)C(=O)O (configuration not stated)	-6.2%	·
29	COc1ccc(CN2C(=O)C(NC(=O)c3cccc(C)c3)(C(F)(F)F)N=C2c2ccccc2)cc1 (configuration not stated)	-20.7%	-29.3%
30	CC1=C(c2ccc(F)cc2)S(=O)(=O)N=C1N1CCC(C(=O)NCCc2ccco2)CC1	-18.2%	-8.9%

(continued)
no.	compound	HTT promoter inh	PMP22 txn
31	CCC(C(=O)N1CCN(c2ccccc2F)CC1)n1nc(C)c2sc3ccccc3c2c1=O (configuration not stated)	-12.2%	1.4%
32	Cc1cc(C)cc(NC2=CC(c3cccc(F)c3)N(c3cc(C)cc(C)c3)C2=O)c1 (configuration not stated)	12.7%	-5.8%
33	CCCCN(CCCC)c1nc(-c2ccccc2)nc2ccccc12	-23.3%	-32.6%
34	Cc1ccccc1CNC(=O)C1CCCN(c2nnc(-n3c(C)ccc3C)s2)C1 (configuration not stated)	-13.2%	15.6µM*
35	Cc1ccc(Cn2c(C(=O)O)c(CNCc3ccccc3Cl)c3ccc(C)cc32)cc1	-20.1%	-6.0%
36	CCc1ccc(NC(=O)C(=O)NCC(c2cccnc2)N2CCN(Cc3ccccc3)CC2)cc1 (configuration not stated)	-29.0%	4.2%
37	COc1ccc(Cn2cc(S(=O)(=O)c3ccc(C)cc3)c(=O)c3cc(F)ccc32)cc1	-19.4%	-3.7%
38	Cc1nc2scc(C)n2c(=O)c1S(=O)(=O)N1CCN(c2cccc(C(F)(F)F)c2)CC1	?	?
39	CCc1ccc(Cc2cnc(NC(=O)c3ccc4c(c3)CC(c3ccccc3)OC4=O)s2)cc1 (configuration not stated)	?	?
40	CCc1ccccc1NC(=O)N(C)CCc1c(C)nn(C)c1C	-3.2%	8.2%
41	COc1ccccc1OCCCCn1c(-c2ccc(Cl)cc2)nc2ccccc2c1=O	-9.2%	?
42	COc1ccc(CNC(=O)C2=CC(c3cccc(OC)c3)=NS(=O)(=O)N2C)cc1	-19.3%	10.0%
43	CCCC(=O)Nc1nc2c(s1)CC(C(C)(C)C)CC2 (configuration not stated)	4.7%	?
44	CCc1cccc(NC(=O)CCNS(=O)(=O)c2cccc3nonc23)c1	-15.6%	-6.6%
45	COc1ccc2c(c1)c1c(c(=O)n(Cc3ccccc3)c(=O)n1Cc1ccccc1)n2C	-2.5%	?

Other records:
no.	compound	HTT promoter inh	PMP22 txn
46	O=C(CSC1=Nc2ccccc2C2=NC(Cc3ccccc3)C(=O)N12)Nc1ccccc1C(F)(F)F (configuration not stated)	-15.1%	-23.1%
47	Cn1c(=O)n(CCCc2ccccc2)c(=O)c2c1nc1n2CCN1c1ccc(F)cc1	-13.9%	-21.6%
48	Cc1c(-c2ccc(Cl)cc2)c(=O)oc2c(CN3CCOCC3)c(O)ccc12	-28.7%	?
49	O=C(Cn1cc(S(=O)(=O)Cc2ccccc2F)c2ccccc21)Nc1ccc(F)c(Cl)c1	?	?
50	COC(=O)c1cc2oc3ccccc3c2n1Cc1ccccc1Cl	-12.7%	13.5%
51	COc1ccccc1CNC(=O)c1cc2c(-c3ccc(Cl)cc3)nn(C)c2s1	?	-23.4%
52	O=C(Nc1ccc(F)cc1F)c1cc2nc(-c3ccco3)cc(C(F)(F)Cl)n2n1	-6.0%	?
53	COc1ccc(CCNC(=O)C(C)n2nc(C)c3sc4ccccc4c3c2=O)cc1OC (configuration not stated)	-14.1%	-11.9%
54	COc1ccc(NC(=O)c2nn(C)c3c2CS(=O)(=O)c2ccccc2-3)cc1Cl	-19.2%	9.3%
55	CCC(C)n1c(=O)c2sccc2n2c(CCCC(=O)N3CCN(c4ccccc4)CC3)nnc12 (configuration not stated)	-20.7%	-38.3%
56	Cc1ccc(OCC(=O)Nc2ccc3c(c2)nc(CCNC(=O)c2ccco2)n3C)cc1	-17.2%	1.9%
57	O=C(Nc1ccc(C(F)(F)F)cc1)C1CCCN(c2cnccn2)C1 (configuration not stated)	-4.9%	-4.8%
58	O=C(c1cccs1)c1cn(CCOc2ccc(F)cc2)c2ccccc12	-26.8%	?
59	Cc1ccc(C)c(Cn2c3ccccc3c3cnn(CC(=O)NCCCc4ccccc4)c(=O)c32)c1	10.0%	-12.7%
60	COc1cccc(C(=O)c2cn(CC(=O)NCc3ccccc3)c3nc(C)ccc3c2=O)c1	-0.3%	-33.4%

Following part.
no.	compound	HTT promoter inh	PMP22 txn
61	COc1cc(OC)cc(-c2nnc(SCC(=O)c3ccc([N+](=O)[O-])cc3)o2)c1	-11.5%	5.7%
62	O=C(c1ccc(F)cc1)N1c2nc(-c3ccco3)nn2C2(CCCCC2)[C@@H]2CCCC[C@@H]21	-28.0%	-30.0%
63	CC1=C(C(=O)Nc2ccc(C)cc2C)C(c2ccc([N+](=O)[O-])cc2)n2ncc(C(=O)Nc3ccc(F)cc3)c2N1 (configuration not stated)	0.5%	-5.2%
64	CCOc1ccccc1C(=O)N(Cc1ccc(N(C)C)cc1)Cc1ccco1	?	?
65	CCCNC(C)C(=O)Nc1ccccc1C (configuration not stated)	9.9%	·
66	CCn1c(=O)c2cc(C(=O)N3CCN(c4cccc(OC)c4)CC3)sc2c2ccccc21	?	-1.2%
67	CCOc1ccc(-c2ccc(NS(=O)(=O)c3cc(C)c(C)cc3C)cc2)nn1	?	-10.2%
68	CCOc1ccc(NC(=O)C(CC(C)C)N2Cc3ccccc3C2=O)cc1 (configuration not stated)	-25.6%	11.3%
69	Cc1cc(C(=O)NCc2ccc(Cl)cc2)c2c(C)nn(-c3ccccc3)c2n1	0.2%	?
70	COc1ccc(CCNC(=O)c2ccc3nc(CCc4ccccc4)oc3c2)cc1OC	-24.7%	-17.0%
71	O=C(c1ccco1)N(Cc1cccnc1)c1nc2c(F)cccc2s1	-32.8%	-37.6%
72	CC1=C(C(=O)Nc2ccccc2C)C(c2sccc2C)n2ncnc2N1 (configuration not stated)	-6.9%	2.9%
73	CCOC(=O)Cc1cc(C(=O)Nc2ccc(Br)cc2)sc1-c1ccc(C)cc1	-13.6%	-18.8%
74	Cc1ccc(NC(=O)c2nc(S(C)(=O)=O)ncc2N(Cc2ccco2)Cc2ccco2)cc1	?	-7.7%
75	COc1cccc(-c2nc(Cn3c(=O)cc(C)c4c(C)nn(-c5ccccc5)c43)c(C)o2)c1OC	-30.0%	-23.2%

Additional results.
no.	compound	HTT promoter inh	PMP22 txn
76	CCOc1ccc(CC(=O)NCc2ccc3c(c2)CCN3C(=O)c2ccc(F)cc2)cc1OCC	-22.2%	-6.1%
77	Cc1ccc(NC(=O)Cn2c(=O)n(Cc3ccc4c(c3)OCO4)c(=O)c3ccc(C(=O)NC4CCCCC4)cc32)cc1	-8.1%	?
78	CCOC(=O)c1ccc(NC(=O)CSc2c3c(nc4cc(Cl)ccc24)CCCC3)cc1	-4.6%	?
79	Cc1ccc(C2c3cccn3CCN2S(=O)(=O)c2ccc([N+](=O)[O-])cc2)cc1 (configuration not stated)	-16.4%	?
80	CC(=O)c1ccc(C(=O)N(Cc2cccnc2)c2nc3c(C)c(C)ccc3s2)cc1	?	?
81	CCCC1=Nc2cc(C(=O)NCc3ccc(OC)cc3)ccc2Sc2ccc(C)cc21	?	?
82	CC(=O)N1CCCc2cc(S(=O)(=O)N(C)CC(=O)Nc3cccc(C)c3C)ccc21	?	-9.9%
83	CCOC(=O)C(C#N)=C(c1ccccc1)c1ccccc1	-13.5%	·
84	CCN1CCN(c2ccc(NS(=O)(=O)c3c(C)nc4sccn4c3=O)cc2Cl)CC1	15.8µM*	8.91µM*
85	CCN(c1ccccc1)S(=O)(=O)c1ccc2[nH]cc(C(=O)NCc3ccc(C)cc3)c(=O)c2c1	-0.3%	13.4µM*
86	CCOc1ccc2nc(N3CCCC(C(=O)NCc4ccc(C)cc4)C3)sc2c1 (configuration not stated)	71.3%[activator]	?
87	COCCCNc1nc2c(c(=O)[nH]c(=O)n2C)n1CC(O)COc1ccc(Cl)cc1 (configuration not stated)	-7.5%	13.7%
88	O=S(=O)(NCCc1csc2nc(-c3ccc(Cl)cc3)nn12)c1cccs1	?	?
89	Cc1cc(Nc2ccccc2O)nc(C)n1	-4.0%	?
90	COc1ccc(CNC(=O)CCC2N=C3c4ccccc4N=C(SCc4ccccc4F)N3C2=O)cc1 (configuration not stated)	-7.5%	-24.4%
91	CCOc1ccc(CNC(=O)C2CCN(S(=O)(=O)N3CCCCC3)CC2)cc1	?	-1.8%
92	Cc1ccc(CNC(=O)c2ccc3c(c2)N(Cc2cccc(Cl)c2)C(=O)CS3)cc1	?	-19.0%
93	O=C(Nc1ccc(F)cc1F)c1cccc2c1C(=O)N(C1CCCCC1)C2	-10.7%	-24.5%

Records 88 through 93 from above:
no.	compound	HTT promoter inh	PMP22 txn
88	O=S(=O)(NCCc1csc2nc(-c3ccc(Cl)cc3)nn12)c1cccs1	?	?
89	Cc1cc(Nc2ccccc2O)nc(C)n1	-4.0%	?
90	COc1ccc(CNC(=O)CCC2N=C3c4ccccc4N=C(SCc4ccccc4F)N3C2=O)cc1 (configuration not stated)	-7.5%	-24.4%
91	CCOc1ccc(CNC(=O)C2CCN(S(=O)(=O)N3CCCCC3)CC2)cc1	?	-1.8%
92	Cc1ccc(CNC(=O)c2ccc3c(c2)N(Cc2cccc(Cl)c2)C(=O)CS3)cc1	?	-19.0%
93	O=C(Nc1ccc(F)cc1F)c1cccc2c1C(=O)N(C1CCCCC1)C2	-10.7%	-24.5%
